# Assay outcomes deposited in PubChem BioAssay by several laboratories.
# BJeLR viability – kills HRASV12-expressing BJeLR cells; BJeLR (HRASV12) viability, CellTiter-Glo ATP luminescence, 48 h; reference of the scale not given here; inhibition, % (test concentration not listed); 300,000 tested, 0.17% active; AID 1554;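 active = replicate mean above 50%; inconclusive = above 50% but judged a plate artefact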;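 also: 50 nL library stock added to about 25 µL; numbers are from one replicate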
# Autofluor counter – counter-screen for toxin protease inhibitors: compound fluorescence | compound autofluorescence counterscreen, microsphere flow cytometry; hits give high values | fluorescence intensity (concentration not given with the values) | 360,000 tested, 3.1% active | AID 624483;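 active = at least 3 SD above the mean of all compounds, about 16000 in these data; inconclusive = too few beads counted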;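 also: 100 nL of 1 mM stock went into each well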
# Mtb hypoxia rep – Mtb hypoxia fluorescent reporter inhibition; fluorescence inhibition, % (test concentration not listed); 300,000 tested, 0.1% active; AID 1159583; M. tuberculosis hypoxia-regulated fluorescent reporter, fluorescence;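 active = 35 to 45% if threefold the growth effect, above 45% if 1.5-fold the growth effect; inactive = the rest, general growth blockers included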;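 also: wells of about 50 µL received 100 nL stock; 0% = vehicle wells and 100% = reference inhibitor wells; whole bacteria with a GFP reporter of the hypoxia response; strong numbers were not always called active; many hits fall short of the cut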
# PrP 5UTR inh – suppresses PrP 5' UTR mRNA reporter expression | inhibition, % (no concentration beside the values) | 340,000 tested, 0.35% active | cell-based PrP 5' UTR mRNA reporter, plate reader;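 active = every replicate at 50% or more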;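 also: 0 = median of the neutral control wells; tested in H4 reporter cells; numbers are from one replicate; inactives centre near -14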
# ugtP null kill – kills S. aureus RN4220 lacking UgtP; 330,000 tested, 0.54% active; growth inhibition, % (concentration not given with the values); S. aureus RN4220 ugtP deletion, OD600 growth, 16 h; some inactives read as strong as hits;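 active = z-score under -3 and OD600 up to 0.15 on both plates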;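 also: plate controls were untreated wells for no effect and antibiotic for full effect; wells of about 80 µL received 100 nL stock; the first replicate is given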
# Sa RN4220 lethal – S. aureus RN4220 growth inhibition. OD600, 16 h. inhibition, % (concentration not given with the values). 330,000 tested, 0.33% active;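 active = z-score of -3 or lower and OD600 up to 0.18 on both plates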;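 also: plate controls were untreated cells for no effect and reference antibiotic for full effect; stock transfer was 100 nL into about 80 µL; one replicate is shown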
# Mtb hypoxia rep growth – also measured in Mtb hypoxia rep; calls as there; growth inhibition, %; measured here: M. tuberculosis growth (absorbance);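 0% = vehicle and 100% = reference antibiotic; read after six days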
# * marks the source's active call; other numbers are inactive results; u = inconclusive; x = no result given. Rows are unselected. Share with any hit: about 4.1%.
no.	smiles	BJeLR viability	Autofluor counter	Mtb hypoxia rep	Mtb hypoxia rep growth
1	COc1cccc(C2C(C(=O)c3cccs3)=C(O)C(=O)N2CCN2CCOCC2)c1OC (stereo unspecified)	8	4018	-1	2
2	CC1=Nc2ccc(Br)cc2C(c2ccccc2)N1CC(=O)O (stereo unspecified)	-6	3745	-3	10
3	CCOc1ccc(N(CC(=O)Nc2cccc(OC)c2)S(C)(=O)=O)cc1	-1	4456	-2	-2
4	C/C(=N/NC(=O)CCC(=O)Nc1cccc(Cl)c1)c1ccc(C)cc1	8	2403	x	x
5	Cc1nc(Sc2ccccc2)c(C#N)c(C)c1[N+](=O)[O-]	-2	3839	x	x
6	CNC(=O)c1cc2cc(OC)ccc2oc1=N	-15	9136	-6	3
7	O=C(NN=Cc1ccncc1)c1ccccc1O	x	x	8	1
8	CNC(=O)c1cc2cccc(OC)c2oc1=O	3	2469	10	-1
9	COc1ccc(C(C)(C)C)cc1NC(=O)COC(=O)c1nc2nccc(C)n2n1	x	6249	4	1
10	CC(Sc1nc(NCc2ccccc2)nc(N2CCOCC2)n1)C(=O)Nc1ccccc1 (stereo unspecified)	13	2932	x	x
11	O=C1NCCN1CCNS(=O)(=O)c1ccccc1[N+](=O)[O-]	7	5246	10	-4
12	COc1ccc2cc3cc(C(=O)NCc4ccc5c(c4)OCO5)oc3nc2c1	1	x	x	x

no.	PrP 5UTR inh	ugtP null kill	Sa RN4220 lethal
1	-7	4	4.4
2	-20	-8	-3.7
3	-18	-3	4.0
4	-8	x	x
5	-21	x	x
6	-20	0	1.5
7	x	10	8.6
8	-2	5	0.2
9	2	4	2.1
10	-14	-7	-1.9
11	-9	-7	5.4
12	-26	5	-6.9

# Later entries
no.	smiles	BJeLR viability	Autofluor counter	Mtb hypoxia rep	Mtb hypoxia rep growth
13	O=C(Nc1ccccc1Cl)ON=C1c2ccccc2-c2ccccc21	-9	7992	-3	-3
14	CC(=O)N1CCC(C(=O)Nc2cc(C)cc(C)c2)CC1	0	4052	-2	4
15	CC(=O)c1ccc(S(=O)(=O)N2CCC(NC(=O)Nc3cccc(F)c3)CC2)cc1	3	4077	16	6
16	CCCCOc1ccc(/C=N/NC(=O)c2nnn(-c3nonc3N)c2CN2CCCCCC2)cc1	-1	6381	x	x
17	CC1(C)C(C=C(Cl)Cl)C1C(=O)N1CCN(c2ccccc2)CC1 (stereo unspecified)	2	22705*	16	8
18	C=C(C)c1cccc(C(C)(C)NC(=O)NCc2ccncc2)c1	13	3704	4	-3
19	N#CC1=C(N)Oc2n[nH]c(-c3ccc(F)cc3)c2C1c1ccncc1 (stereo unspecified)	-4	4527	x	x
20	C=CCOC(=O)C1=C(C)NC(SCC(=O)OCC)=C(C#N)C1c1ccc(C)cc1 (stereo unspecified)	3	2625	3	6
21	COc1cc(/C=C(\C#N)C(=O)NC(C)C)cc(Cl)c1O	-1	3211	x	x
22	COc1cc2cc(C(c3nnnn3C(C)(C)C)N3CCc4ccccc43)c(=O)[nH]c2cc1OC (stereo unspecified)	-5	7713	2	14
23	CN(Cc1c(C(=O)NN=Cc2cccc(O)c2)nnn1-c1nonc1N)c1ccccc1	x	x	-11	-12
24	COc1ccc(SCC2CN(C)CCC2c2ccc(F)cc2)cc1 (stereo unspecified)	12	4302	-1	3

no.	PrP 5UTR inh	ugtP null kill	Sa RN4220 lethal
13	-30	95*	-4.3
14	-2	8	3.8
15	-11	5	9.2
16	-15	x	x
17	-4	1	2.5
18	-32	4	4.5
19	-17	x	x
20	-12	4	7.2
21	0	x	x
22	-16	-8	18
23	x	14	8.5
24	17	1	-1.8

# Next results follow:
no.	smiles	BJeLR viability	Autofluor counter	Mtb hypoxia rep	Mtb hypoxia rep growth
25	CC(C)(C)C1CCc2c(sc(NC(=O)CSc3nnc(-c4ccccc4)o3)c2C#N)C1 (stereo unspecified)	7	7559	11	4
26	CCCc1nnc(NC(=O)CCC(=O)N2CCN(CCOc3ccc(C)cc3)CC2)s1	-4	3491	13	11
27	O=C(/C=C/c1ccccc1)/C=C/c1ccccc1	-5	1928	15	7
28	CCC1C(c2ccccc2)NC(c2ccccc2)CC1(O)c1ccc(F)cc1 (stereo unspecified)	-5	3684	5	-9
29	O=C(c1ccco1)N1CCN(C(=O)c2cn(-c3ccccc3)nc2-c2ccccc2)CC1	x	u	-2	-3
30	Cc1[nH]c2ccccc2c1/C=N/NC(=O)CNC(=O)c1cccs1	2	4335	x	x
31	Cn1c(N)c(C(=O)CSc2nnc(C3CC3)n2-c2ccccc2)c(=O)n(C)c1=O	x	3060	0	-5
32	CCC(=NCC1CCCO1)c1c(O)n(-c2ccccc2)c(=O)[nH]c1=O (stereo unspecified)	1	3348	-6	5
33	CCOc1ccccc1NC(=O)CN(Cc1ccccc1)S(C)(=O)=O	-4	9532	6	3
34	CC1CC(C)CN(S(=O)(=O)c2ccc3c(c2)CCN3C(=O)C2CC2)C1 (stereo unspecified)	-11	5236	3	1
35	CCCC(=O)NC(=S)Nc1ccc(N2CCOCC2)c(Cl)c1	-6	2254	4	12
36	Cc1ccc(NC(=O)CNC(=O)c2cccs2)c(O)c1	-8	u	6	-7

no.	PrP 5UTR inh	ugtP null kill	Sa RN4220 lethal
25	-8	6	-0.6
26	4	9	5.6
27	-19	21	15
28	-29	-29	-4.4
29	-14	6	3.8
30	-17	x	x
31	3	4	2.2
32	-103	-1	1.8
33	-17	4	4.1
34	-16	1	3.1
35	-38	2	2.5
36	-8	4	3.5

# (cont.)
no.	smiles	BJeLR viability	Autofluor counter	Mtb hypoxia rep	Mtb hypoxia rep growth
37	O=C(CSc1nc2ccccc2[nH]1)c1ccc2c(c1)OCO2	x	6329	4	6
38	COc1cccc(-c2nc(Oc3cc(C)cc(C)c3)c3ccccc3n2)c1O	-11	x	-5	-3
39	O=C(O)C1=C[C@@H](c2ccc(C(F)(F)F)cc2)C[C@@H](OCc2ccc(CO)cc2)O1	10	3760	x	x
40	O=C(O)CN1C(=O)CC(Cc2ccc(Cl)cc2)C1=O (stereo unspecified)	-3	u	1	1
41	Cc1cccc(NC(=O)CSc2nnc(-c3ccco3)c(-c3ccco3)n2)c1C	2	2870	x	x
42	CC(C)(C)C(=O)N1CCC[C@H]1C(O)(c1ccccc1)c1ccccc1	-8	7343	-3	-6
43	CCOc1cccc(OCCOCCOc2ccccc2C(C)=O)c1	-9	3477	-4	11
44	C[C@@H](C(=O)NCC1CC1)[C@@H]1C[C@@]1(C)[C@@H](NC(=O)OCc1ccccc1)c1ccccc1	-7	3394	x	x
45	COc1ccc(C(=O)NCCS(=O)(=O)N2CCN(Cc3ccccc3)CC2)cc1	1	6930	4	2
46	CC1COC(=O)CCCCC=CCC(CC(=O)N(CCO)Cc2ccccc2)C(=O)N1 (stereo unspecified)	x	x	14	11
47	CCCCC(=O)N1CC=CC(c2ccc(OC)cc2)N(Cc2ccc(F)cc2)C(=O)C1Cc1ccccc1 (stereo unspecified)	x	x	12	8
48	CC1(C)c2cc(O)ccc2OC1N1CCOCC1 (stereo unspecified)	-6	3872	-6	2

no.	PrP 5UTR inh	ugtP null kill	Sa RN4220 lethal
37	-47	-14	-2.9
38	x	-11	-0.1
39	-25	x	x
40	-13	-1	-2.6
41	-18	x	x
42	-25	0	-1.8
43	-29	3	1.3
44	-6	x	x
45	-9	10	1.1
46	x	-3	1.2
47	x	-31	-3.9
48	-20	15	8.0

# Remaining list, next part:
no.	smiles	BJeLR viability	Autofluor counter	Mtb hypoxia rep	Mtb hypoxia rep growth
49	Cc1ccc(S(=O)(=O)N(C)C)cc1NC(=O)c1ccc(OC(F)(F)F)cc1	-3	2447	1	0
50	CCOc1cccc2cc(-c3csc(NC(=O)CCC(=O)NCCCN4CCC(C)CC4)n3)c(=O)oc12	-23	x	-8	7
51	CC(C)(C)C(=O)COC(=O)c1ccc2c(c1)C(=O)N(Cc1ccco1)C2=O	-8	3703	-3	-10
52	COC(=O)CNc1nc(Cl)nc(Nc2ccc(C)cc2)n1	-3	3602	5	2
53	Cc1c(-c2ccccc2)nc(-c2ccccc2)[nH]c1=O	-10	2368	1	1
54	Cc1cc(C(=O)OCC(=O)N2c3ccccc3CC2C)c(C)o1 (stereo unspecified)	1	2981	9	10
55	COCN(C#N)c1nc(N(C)C)nc(N(C)C)n1	11	6925	0	6
56	CC(CCc1ccccc1)NC(=O)/C=C/c1ccc(F)cc1 (stereo unspecified)	-14	x	1	0
57	CN(C)CCCNC(=O)C[C@H]1C[C@H](C(=O)N2CCCCC2)[C@@]2(C)c3[nH]c4ccc(Cl)cc4c3CCN2C1=O	x	3293	-5	8
58	Cc1cccc(OCCOC(=O)CN2C(=O)NC3(CCCC3)C2=O)c1	4	5943	-9	5
59	COC(=O)C1=C(CS(=O)(=O)c2ccc(Cl)cc2)NC(=O)NC1c1ccc(O)cc1 (stereo unspecified)	0	4489	-9	-8
60	COc1ccc(-n2cc(CN(C)C3CCOCC3)c(-c3cccc(F)c3)n2)cc1	2	4354	4	6

no.	PrP 5UTR inh	ugtP null kill	Sa RN4220 lethal
49	1	5	4.6
50	x	5	6.3
51	-7	8	2.4
52	-20	-3	1.3
53	4	3	-5.9
54	-22	4	-14
55	-42	0	0.8
56	x	9	-4.6
57	-29	-1	2.4
58	-4	1	-1.1
59	-10	0	-1.4
60	-17	3	8.1

# From no. 47 up to 57, copied from above:
no.	smiles	BJeLR viability	Autofluor counter	Mtb hypoxia rep	Mtb hypoxia rep growth
47	CCCCC(=O)N1CC=CC(c2ccc(OC)cc2)N(Cc2ccc(F)cc2)C(=O)C1Cc1ccccc1 (stereo unspecified)	x	x	12	8
48	CC1(C)c2cc(O)ccc2OC1N1CCOCC1 (stereo unspecified)	-6	3872	-6	2
49	Cc1ccc(S(=O)(=O)N(C)C)cc1NC(=O)c1ccc(OC(F)(F)F)cc1	-3	2447	1	0
50	CCOc1cccc2cc(-c3csc(NC(=O)CCC(=O)NCCCN4CCC(C)CC4)n3)c(=O)oc12	-23	x	-8	7
51	CC(C)(C)C(=O)COC(=O)c1ccc2c(c1)C(=O)N(Cc1ccco1)C2=O	-8	3703	-3	-10
52	COC(=O)CNc1nc(Cl)nc(Nc2ccc(C)cc2)n1	-3	3602	5	2
53	Cc1c(-c2ccccc2)nc(-c2ccccc2)[nH]c1=O	-10	2368	1	1
54	Cc1cc(C(=O)OCC(=O)N2c3ccccc3CC2C)c(C)o1 (stereo unspecified)	1	2981	9	10
55	COCN(C#N)c1nc(N(C)C)nc(N(C)C)n1	11	6925	0	6
56	CC(CCc1ccccc1)NC(=O)/C=C/c1ccc(F)cc1 (stereo unspecified)	-14	x	1	0
57	CN(C)CCCNC(=O)C[C@H]1C[C@H](C(=O)N2CCCCC2)[C@@]2(C)c3[nH]c4ccc(Cl)cc4c3CCN2C1=O	x	3293	-5	8

no.	PrP 5UTR inh	ugtP null kill	Sa RN4220 lethal
47	x	-31	-3.9
48	-20	15	8.0
49	1	5	4.6
50	x	5	6.3
51	-7	8	2.4
52	-20	-3	1.3
53	4	3	-5.9
54	-22	4	-14
55	-42	0	0.8
56	x	9	-4.6
57	-29	-1	2.4

# Following part:
no.	smiles	BJeLR viability	Autofluor counter	Mtb hypoxia rep	Mtb hypoxia rep growth
61	CCOC(=O)c1[nH]cnc1C(=O)Nc1ccccc1C	5	4744	14	5
62	COc1cccc(CN2CCN(S(=O)(=O)c3ccccc3)CC2)c1OC	4	x	9	2
63	O=C(c1cc2cc(Cl)ccc2oc1=O)N1CCCC1	-7	3240	1	20
64	Cc1cc(C(=O)COC(=O)C2=NNC(=O)CC2)c(C)n1-c1ccc(OC(F)F)cc1	7	2719	16	15
65	COc1cc(NC(=O)C2CC(=O)N(CCc3ccc(F)cc3)C2)cc(OC)c1OC (stereo unspecified)	-11	3738	21	5
66	CC1=CC(=NNC(=S)Nc2cccnc2)CC(C)(C)C1	x	x	-2	10
67	CCn1c(SCC(=O)Nc2ccc3c(c2)n(C)c(=O)n3C)nnc1-c1ccncc1	-4	5730	1	-1
68	Oc1ccc(C[C@@H]2CNCCN2CC2(c3ccccc3)CC2)cc1	11	4280	x	x

no.	PrP 5UTR inh	ugtP null kill	Sa RN4220 lethal
61	-16	-7	3.5
62	x	4	4.0
63	-11	1	11
64	-10	-5	-10.0
65	-23	4	3.4
66	x	-8	-3.6
67	-32	2	3.7
68	-28	x	x
